# Source: PubChem BioAssay
# GIRK2 act: GIRK2 channel activation; P48051; HEK293-GIRK2 thallium flux, Thallos fluorescence; calls only for hits at 25 µM; 63,000 tested, 0.05% active; AID 1259325;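 active = among the strongest 0.2% of first-round signals and kept after retests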;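 also: first round at about 10 µM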
# Target sequence (P48051 whole entry, looked up): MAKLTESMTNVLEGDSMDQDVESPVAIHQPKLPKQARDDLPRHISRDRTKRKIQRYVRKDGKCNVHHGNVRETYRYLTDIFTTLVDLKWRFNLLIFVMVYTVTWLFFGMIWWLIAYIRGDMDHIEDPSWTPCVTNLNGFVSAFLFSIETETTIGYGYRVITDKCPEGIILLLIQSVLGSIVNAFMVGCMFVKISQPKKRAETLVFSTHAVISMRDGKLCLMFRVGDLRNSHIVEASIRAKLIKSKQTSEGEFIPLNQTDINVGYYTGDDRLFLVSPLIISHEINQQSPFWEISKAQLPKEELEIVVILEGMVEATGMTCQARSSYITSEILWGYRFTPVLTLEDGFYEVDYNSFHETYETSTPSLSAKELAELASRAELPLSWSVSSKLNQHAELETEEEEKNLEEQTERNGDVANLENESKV
# Calls only; i = inactive.
GIRK2 act	Structure
i	CCOC(=O)Cc1csc(NC(=O)Cc2sc(-c3ccccc3)nc2C)n1
i	O=C(/C=C/c1ccccc1)NCC1CCN(C(=O)Oc2ccccc2)CC1
i	CCOc1ccccc1N1CCN(C(=O)C2CCN(c3ncnc4c3oc3ccccc34)CC2)CC1
i	O=C(CN1CCN(c2ccc(F)cc2)C1=O)NCC(F)(F)F
i	Cc1cc(C)c(NC(=O)CSc2nnc(-c3cccnc3)o2)c(C)c1
i	COc1cccc(Oc2nccn3c(=O)n(CC(=O)Nc4c(C)cccc4C)nc23)c1
i	CCOC(=O)C1CCc2sc(NC(=O)C3CSCCC(=O)N3)nc21 (centres undefined)
i	CCCN1C(SCC(=O)NC2CCCCC2)=NS(=O)(=O)c2ccccc21
i	O=C(CSc1cc(N2CCCCC2)ncn1)NCc1ccccc1
i	COc1ccc(CCC(=O)N2CCN(Cc3nc(C(C)(C)C)cs3)CC2)cc1
i	O=C(COc1ccccc1)N1CC(c2nc(-c3ncccn3)no2)C1
i	COc1ccccc1-c1noc(C2CN(CC(=O)Nc3cccnc3)C2)n1
i	COc1ccc2nc(OC3CN(C(=O)c4cn(C)nn4)C3)sc2c1
i	Cn1c(=O)c2c(nc3n2CCCN3CC(=O)OCc2ccccc2)n(C)c1=O
i	CCc1ccc(NC(=O)c2cn(Cc3ccc(NC(=O)C(C)C)cc3)cn2)cc1
i	CCCC(=O)N1CCC(c2nnc(Cc3ccc(OC)cc3)s2)CC1
i	Cc1ccc(-n2cc(C(=O)N3CCC(NC(=O)c4ccco4)CC3)nn2)cc1
i	CCCc1noc(-c2ccc(SCC(=O)Nc3ccc4c(c3)CCC4)nc2)n1
i	Nc1c(-c2ccccn2)nsc1C(=O)N1CCc2ccccc2C1
i	COC(=O)c1ccc(NC(=O)c2cc(=O)c(OC)cn2C)cc1

# Some of the entries so far, field by field.
CCCC(=O)N1CCC(c2nnc(Cc3ccc(OC)cc3)s2)CC1
- GIRK2 act: i

Cc1ccc(-n2cc(C(=O)N3CCC(NC(=O)c4ccco4)CC3)nn2)cc1
- GIRK2 act: i

CCCc1noc(-c2ccc(SCC(=O)Nc3ccc4c(c3)CCC4)nc2)n1
- GIRK2 act: i

# The listing picks up, starting 4 compounds before the break.
GIRK2 act	Structure
i	Cc1ccc(-n2cc(C(=O)N3CCC(NC(=O)c4ccco4)CC3)nn2)cc1
i	CCCc1noc(-c2ccc(SCC(=O)Nc3ccc4c(c3)CCC4)nc2)n1
i	Nc1c(-c2ccccn2)nsc1C(=O)N1CCc2ccccc2C1
i	COC(=O)c1ccc(NC(=O)c2cc(=O)c(OC)cn2C)cc1
i	O=C(NCCCN1CCN(c2ccccc2)CC1)c1ccc(F)cc1
i	COc1ccc(OCc2noc(CNC(=O)c3cc(C)oc3C)n2)cc1
i	OCc1nc2ccccc2n1CCCOc1ccc2ccccc2c1
i	CCOC(=O)N1CCc2c(sc(NC(=O)/C=C/c3cccs3)c2-c2nc3ccccc3s2)C1
i	CCOc1ccc(NC(=O)NCCCN2CCOC(c3ccccc3)C2)cc1 (centres undefined)
i	Cc1cc(C)cc(NC(=O)CN2CCC(C(=O)Nc3ncc(C)s3)CC2)c1
i	Cn1cc(C(=O)NC2CCCCCC2)c(S(=O)(=O)N2CCN(c3ccc(Cl)cc3)CC2)n1
i	CC(Oc1ccccc1)C(=O)N1CCN(Cc2nnnn2-c2ccc(Cl)cc2)CC1 (centres undefined)
i	O=c1[nH]c2nnc(Nc3ccccc3)n2c2[nH]ncc12
i	CCCc1nnsc1C(=O)NCC1CCN(C(=O)Oc2ccccc2)CC1
i	COc1ccccc1CCNC(=O)C(=O)Nc1ccc(N2CCCS2(=O)=O)cc1
i	COc1ccc(N2CCN(CCn3c(C)c(C)n4c5c(=O)n(C)c(=O)n(C)c5nc34)CC2)cc1
i	O=C(CCc1ccccc1)N1CCN(Cc2cnnn2-c2ccccc2)CC1
i	O=C(Cn1nc(-c2cccs2)c2sc(N3CCCC3)nc2c1=O)OCc1ccccc1
i	CSc1ccc(/C=C2\C=C(CC(=O)NCc3ccc(O)cc3)c3cc(F)ccc32)cc1
i	O=C(NCc1cccs1)C(=O)NCC1(O)CCOc2ccccc21 (centres undefined)
i	CCCCc1ccc(N2C=C(C#N)S(=O)(=O)c3ccccc32)cc1
i	O=C1C2C3C=CC(C3)C2C(=O)N1CCN1C(=O)C2C3C=CC(C3)C2C1=O (centres undefined)
i	C=CCNc1nc2ccccc2nc1NS(=O)(=O)c1cccc(Cl)c1
i	COCCn1c(N2CCN(CCCc3ccccc3)CC2)nc2c1c(=O)[nH]c(=O)n2C

# Next compounds follow.
GIRK2 act	Structure
i	COC(=O)c1ccc2c(c1)sc(=NC(=O)c1nn(C)cc1C)n2C
i	CCOc1ccccc1-n1nnc(C(=O)Nc2ccc(C(C)=O)cc2)c1C
i	Cc1cc(NC(=O)c2cn(-c3cccc(Cl)c3)nn2)ccc1Br
i	O=C(NCc1nn(C2CCCC2)c2c1CCCC2)c1ccc(F)cc1Cl
i	CCc1ccc(NC(=O)c2cn(Cc3ccc(NC(=O)c4cccc(F)c4)cc3)cn2)cc1
i	COC(=O)c1ccccc1NC(=O)c1csc2nc(-c3ccc(OC)cc3)cn12
i	CC(C)(C)NCC(O)COc1ccc2ccccc2c1 (centres undefined)
i	COc1ccc(Cn2cccc(S(=O)(=O)N3CCCCC3)c2=O)cc1F
i	CC(C)(C)c1ccc(C(=O)N2CCN(Cc3nnnn3-c3ccccc3)CC2)cc1
i	O=C(Cc1c[nH]c2ccccc12)N1CCCC(c2nnc(-c3cccs3)o2)C1 (centres undefined)
i	COc1cccc(CNC(=O)C(=O)NCC2(c3ccccc3)CCOCC2)c1
i	O=C(c1ccc(F)c(F)c1)N1CC(c2nc(-c3cnccn3)no2)C1
i	Cc1cccc(C)c1OCCOCC(O)CN1CCN(c2ccc(F)cc2)CC1 (centres undefined)
i	Cc1nc2c(-c3ccccn3)nsc2c(=O)n1CC(=O)NCCCc1ccccc1
i	Cc1cc(C(=O)N(CCn2cccn2)c2nc3c(Cl)cccc3s2)no1
i	COc1ccccc1CNC(=O)CCCSc1ccc(NC(=O)c2cccs2)nn1
i	COc1cccc(Cn2ccn(-c3cccc(OC)c3)c(=O)c2=O)c1
i	COc1ccccc1-c1ccc(N2CCC(NC(=O)Cc3cccc(F)c3)CC2)nn1
i	O=C(Nc1cc(N2CCN(Cc3ccccc3)CC2)ncn1)C1COc2ccccc2O1 (centres undefined)
i	Cn1cccc(C(=O)N2CCC(Oc3ccc(C(F)(F)F)cn3)CC2)c1=O

# Next part.
GIRK2 act	Structure
i	Cc1nnc2c(S(=O)(=O)N(Cc3cc(F)cc(F)c3)c3cccc(F)c3)cccn12
i	COc1ccc(-c2csc3c(=O)n(CC(=O)NCCc4ccc(OC)c(OC)c4)cnc23)cc1
i	CS(=O)(=O)c1ccc(Nc2nc(CC(=O)N3CCCC3)cs2)cc1
i	Cc1ccc(C)c(N2CCN(C(=O)c3snc4c(=O)n(C)c(=O)[nH]c34)CC2)c1
i	N#Cc1c(N)n(-c2ccc(NC(=O)c3cccs3)cc2)c2nc3ccccc3nc12
i	CCOC(=O)c1c(C)oc2cc(Br)c(OCC(N)=O)cc12
i	O=c1ccc(-c2ccccc2)nn1CCN1CCN(S(=O)(=O)c2ccccc2C(F)(F)F)CC1
i	CC(C)c1ccc(NC(=O)Cn2nc(-c3ccccc3)c3sc(N4CCOCC4)nc3c2=O)cc1
i	Cc1c(-c2noc(-c3ccc(N(C)C)cc3)n2)nnn1Cc1ccccc1
i	O=C(NCCCN1CCOCC1)C(=O)Nc1ccccc1[N+](=O)[O-]
i	COc1ccc(S(=O)(=O)Nc2nc3ccccc3nc2NCC2CCCO2)cc1 (centres undefined)
i	O=C(NCC1CCS(=O)(=O)C1)C1(c2ccc(Cl)cc2)CCCC1 (centres undefined)
i	COc1ccc(CNC(=O)c2ccc(Oc3nccnc3N3CCOCC3)cc2)c(OC)c1
i	Cc1ccc(C)c(NC(=O)Cn2nc3n(c(=O)c2=O)CCN3c2ccccc2)c1
i	Cc1cccc(C)c1NC(=O)Cn1c(=O)cnc2cc(C(=O)NC3CC3)ccc21
i	CCOC(=O)c1c(NC(=O)COc2cccc3c2CCN(Cc2ccc(F)cc2)C3=O)sc2c1CCC2
i	NS(=O)(=O)c1ccc(CCNC(=O)c2[nH]c3ccccc3c2NC(=O)c2ccc(Cl)cc2)cc1
i	O=C(NCc1cccs1)NCC(O)c1ccc2c(c1)CCO2 (centres undefined)
i	CCOC(=O)N1CCN(C(=O)c2snc(-c3ccccn3)c2N)CC1
i	CN1CCCc2cc(CCNC(=O)C(=O)Nc3cc(Cl)ccc3C#N)ccc21

# 7 entries from above, ordered by length of the SMILES, smallest number first:
GIRK2 act	Structure
i	O=C(NCc1cccs1)NCC(O)c1ccc2c(c1)CCO2 (centres undefined)
i	CCOC(=O)c1c(C)oc2cc(Br)c(OCC(N)=O)cc12
i	CCOC(=O)N1CCN(C(=O)c2snc(-c3ccccn3)c2N)CC1
i	CN1CCCc2cc(CCNC(=O)C(=O)Nc3cc(Cl)ccc3C#N)ccc21
i	CC(C)c1ccc(NC(=O)Cn2nc(-c3ccccc3)c3sc(N4CCOCC4)nc3c2=O)cc1
i	CCOC(=O)c1c(NC(=O)COc2cccc3c2CCN(Cc2ccc(F)cc2)C3=O)sc2c1CCC2
i	NS(=O)(=O)c1ccc(CCNC(=O)c2[nH]c3ccccc3c2NC(=O)c2ccc(Cl)cc2)cc1

# Remaining list, next part.
GIRK2 act	Structure
i	COc1ccc(OC)c(C(=O)Cn2cc(-c3nc(C4CC4)no3)ccc2=O)c1
i	CC(NC(=O)c1ccc2c(=O)nc3c(-c4cccc(F)c4)n[nH]n3c2c1)c1ccc(F)cc1 (centres undefined)
i	CCC(CC)C(=O)NCCN1CCN(C(=O)OC)CC1
i	COc1ccccc1NC(=O)CCc1ccc(-c2ccccc2Cl)o1
i	CC(Oc1ccccc1)C(=O)Nc1cnc(Oc2ccccc2F)nc1 (centres undefined)
i	O=S(=O)(c1ccc(F)c(Cl)c1)N(CCc1cccs1)Cc1ccoc1
i	COc1ccc(CCNc2nccn(-c3ccc4c(c3)OCCO4)c2=O)cc1OC
i	O=C(Cc1cccs1)NC1CC(O)C(CO)C1 (centres undefined)
i	Cc1nn(C)c(C)c1CNC(=O)CCn1cnc2c([nH]c3ccccc32)c1=O
i	CC(C)(Oc1ccc(Cl)cc1)C(=O)NC1CCCCC1N1C(=O)CSC1=O (centres undefined)
i	Cc1nnc(C2CCN(C(=O)/C=C/c3cccs3)CC2)s1
i	CC1CCCN(c2nc3ccccc3nc2C(C#N)C(=O)OCc2ccccc2)C1 (centres undefined)
i	O=C(NCC1(CO)CC1)c1c(F)cccc1Cl
i	CC(C)CC(=O)Nc1cnc(N2CCN(c3ccccn3)CC2)nc1
i	Cc1ccc2c(c1)NC(=O)c1cc(NC(=O)NC(C)(C)C)ccc1O2
i	CC(C)Oc1ccc(C(=O)N2CCCSCC2CN(C)C)cc1 (centres undefined)
i	Cc1ccc(S(=O)(=O)N2CN(CC3CCCO3)c3nc4ccccc4nc32)cc1C (centres undefined)
i	O=C(Nc1cc(-n2cccn2)ncn1)c1ccc(=O)n(Cc2cccc(F)c2)n1
i	CCC1=C(C(=O)OC)C(c2cccc(OC)c2)n2nc(SC)nc2N1 (centres undefined)
i	O=c1[nH]c2c(-c3ccccn3)nsc2c(=O)n1CCc1ccccn1

# Remaining list, next part.
GIRK2 act	Structure
i	Cc1cccc(C)c1NC(=O)Cn1c(=O)nc(-c2ccccc2)c2cc(Cl)ccc21
i	Cc1ccc(C)c(-n2ccn(Cc3nc(-c4ccccc4C)no3)c(=O)c2=O)c1
i	Cc1cc(C(F)(F)F)nc(CCNC(=O)CSCc2ccccc2)n1
i	O=C(c1cccc(-n2cnnn2)c1)N1CCC(c2nnc(-c3ccco3)o2)CC1
i	Cc1cc(NC(=O)CN2CCN(CC(O)C3CC3)CC2)no1 (centres undefined)
i	COc1ccc(S(=O)(=O)NCc2cc(-c3ccncc3)n(C)n2)c(C)c1
i	COc1cccc(N2CCn3c2nc2c3c(=O)n(CCN3CCOCC3)c(=O)n2C)c1
i	COc1ncccc1C(=O)NC1CC(=O)N(C2CC2)C1 (centres undefined)
i	COc1cc(N2CCN(C(C)C)CC2)ccc1Nc1nc(Nc2cccc(F)c2C(=O)O)c2cc[nH]c2n1
i	CCOC(=O)N1CCN(C(=O)c2nnn(-c3ccc(OC)cc3)n2)CC1
i	COc1ccc(CC(=O)N2CC(c3nc(-c4cccc(C(F)(F)F)c4)no3)C2)cc1OC
i	Cc1nc2ccccn2c1C(=O)Nc1cccc(-c2ccn[nH]2)c1
i	CC(=O)N[C@@H](Cc1ccc(OP(=O)(O)O)cc1)C(=O)N[C@H]1CCC(=O)N2CCC[C@@H](C(=O)NCc3ccc(Cl)cc3)N2C1=O
i	Cc1ccc2c(=O)c(C(=O)N3CCCCC3)cn(CC(=O)Nc3ccc(Cl)cc3)c2n1
i	COc1cccc(-n2ccn(CC(=O)Nc3ccccc3C(F)(F)F)c(=O)c2=O)c1
i	CSc1ccc(CNC(=O)Cc2nnc(-c3ccsc3)o2)cc1
i	Cn1cc(C(=O)N2CCN(S(C)(=O)=O)CC2)nn1
i	O=C(CN1CCN(Cc2nc3ccccc3[nH]2)CC1)N1CCC(Cc2ccccc2)CC1
i	COCCNC(=O)NCC1CCN(Cc2ccco2)CC1
i	Cc1ccc(OCC(O)CN2CCN(c3ccccc3F)CC2)cc1 (centres undefined)

# (cont.)
GIRK2 act	Structure
i	CCCCCCNC(=O)n1cc(F)c(=O)[nH]c1=O
i	COc1ccc(NC(=O)Cn2ccn3nc(-c4ccc(OC)c(OC)c4)cc3c2=O)cc1Cl
i	O=C(NCCCS(=O)(=O)N1CCc2ccccc2C1)c1ccco1
i	COc1ccc(N/C=C(\C#N)c2nc(-c3ccc4c(c3)OCO4)cs2)cc1OC
i	Cc1noc(C)c1S(=O)(=O)NCC1(c2ccccc2)CCOCC1
i	O=C(Cc1cccc2ccccc12)N1CC(c2nc(Cc3ccccc3)no2)C1
i	O=C(Cn1nc(-c2cccs2)c2sc(N3CCOCC3)nc2c1=O)NC1CCCCC1
i	Cc1ccc2nc(C3CN(C(=O)Cc4ccc(SC(C)C)cc4)C3)[nH]c2c1
i	COc1ccc(Nc2n[nH]nc2C(=O)Nc2ccc(F)cc2C)cc1
i	O=C(NCc1cnn2ccccc12)c1ccc(F)c(F)c1
i	O=C(NCC(O)c1ccoc1)C1c2ccccc2Oc2ccccc21 (centres undefined)

# A portion of the library (hit frequency here may not be typical).
